ugtP null kill = kills S. aureus RN4220 lacking UgtP. S. aureus RN4220 ugtP deletion, OD600 growth, 16 h; some inactives read as strong as hits. AID 1259309. growth inhibition, % (no concentration beside the values). 330,000 compounds, 0.54% hits;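 active = z-score under -3 and OD600 up to 0.15 on both plates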;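 note: plate controls were untreated wells for no effect and antibiotic for full effect; wells of about 80 µL received 100 nL stock; the first replicate is given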
PrP UTR inh = suppresses PrP 5' UTR mRNA reporter expression; cell-based PrP 5' UTR mRNA reporter, plate reader; inhibition, % (no concentration beside the values); 340,000 compounds, 0.35% hits; AID 488862;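 active = every replicate at 50% or more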;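 note: 0 = median of the neutral control wells; tested in H4 reporter cells; numbers are from one replicate; inactives centre near -14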
RN4220 kill = S. aureus RN4220 growth inhibition; OD600, 16 h; AID 1259311; 330,000 compounds, 0.33% hits; inhibition, % (test concentration not listed);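 active = z-score of -3 or lower and OD600 up to 0.18 on both plates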;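 note: plate controls were untreated cells for no effect and reference antibiotic for full effect; stock transfer was 100 nL into about 80 µL; one replicate is shown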
Autofluor counter = flagged as autofluorescent in microsphere protease counterscreen; fluorescence intensity (no concentration beside the values); 360,000 compounds, 3.1% hits; AID 624483; compound autofluorescence counterscreen, microsphere flow cytometry; active compounds read high;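 active = at least 3 SD above the mean of all compounds, about 16000 in these data; inconclusive = too few beads counted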;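 note: 100 nL of 1 mM stock went into each well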
Mtb hypoxia inh = reduces hypoxia-regulated biosensor signal in M. tuberculosis; M. tuberculosis hypoxia-regulated fluorescent reporter, fluorescence; fluorescence inhibition, % (test concentration not listed); 300,000 compounds, 0.1% hits; AID 1159583;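 active = 35 to 45% if threefold the growth effect, above 45% if 1.5-fold the growth effect; inactive = the rest, general growth blockers included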;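 note: wells of about 50 µL received 100 nL stock; 0% = vehicle wells and 100% = reference inhibitor wells; whole bacteria with a GFP reporter of the hypoxia response; strong numbers were not always called active; many hits fall short of the cut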
BJeLR viability = kills HRASV12-expressing BJeLR cells | inhibition, % (test concentration not listed) | BJeLR (HRASV12) viability, CellTiter-Glo ATP luminescence, 48 h; reference of the scale not given here | 300,000 compounds, 0.17% hits;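 active = replicate mean above 50%; inconclusive = above 50% but judged a plate artefact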;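 note: 50 nL library stock added to about 25 µL; numbers are from one replicate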
Mtb hypoxia inh growth = second read-out of Mtb hypoxia inh, no call of its own (marks repeat the call); growth inhibition, %; measured here: M. tuberculosis growth (absorbance);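 0% = vehicle and 100% = reference antibiotic; read after six days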
The depositor's hits bear a star; ? = inconclusive; nt = no result given.

Start of the listing, in advance, 2 compounds:
SMILES	ugtP null kill	PrP UTR inh	RN4220 kill	Autofluor counter	Mtb hypoxia inh	Mtb hypoxia inh growth	BJeLR viability
Cc1c(C(=O)N2CCCCC2)c(S(=O)(=O)NCCc2ccc(Cl)cc2)c(C)n1C	2	-18	1.8	5436	0	-1	-10
Cc1cc(NC(=O)CSc2nc3ccccc3cc2C#N)no1	4	-63	2.0	5291	8	-1	-11

The whole of this part, repeating the preview:
SMILES	ugtP null kill	PrP UTR inh	RN4220 kill	Autofluor counter	Mtb hypoxia inh	Mtb hypoxia inh growth	BJeLR viability
Cc1c(C(=O)N2CCCCC2)c(S(=O)(=O)NCCc2ccc(Cl)cc2)c(C)n1C	2	-18	1.8	5436	0	-1	-10
Cc1cc(NC(=O)CSc2nc3ccccc3cc2C#N)no1	4	-63	2.0	5291	8	-1	-11
COC(=O)[C@@H](NC(=O)CCc1nnc(-c2ccsc2)o1)C(C)C	9	-27	1.5	4065	2	-4	1
Cc1nc2c3ccccc3nc(NNC(=O)CCC(=O)NCCN3CCN(c4ccccc4)CC3)n2n1	-3	-32	-5.1	5950	-5	-5	4
CCC(Oc1ccccc1)C(=O)N(C)CC(=O)N(CC(C)C)c1c(N)n(CC(C)C)c(=O)[nH]c1=O (stereo unspecified)	3	-25	2.2	nt	7	1	-2
Cc1ccc(NC(=O)CN(C)C(=O)/C=C/c2cccs2)cc1	4	-24	3.6	10026	0	3	-1
COc1ccccc1NC(=S)N1CCC(NC(=O)C23CC4CC(CC(C4)C2)C3)CC1	0	-18	3.6	3171	-1	9	6
O=C(/C=C/c1ccccc1)N/C(=C/c1ccccc1)C(=O)Nc1ccccc1O	-4	-25	3.0	10636	7	6	-5
Cc1ccc(NP(=O)(Oc2ccccc2F)Oc2ccccc2F)cc1C	-38	-7	-5.1	7252	2	5	8
O=C(NCCc1ccc(C(F)(F)F)cc1)C1CCC(=O)N(CCCc2ccccc2)C1 (stereo unspecified)	-14	-15	-4.1	6041	-5	2	6
Cc1cccc(NC(=O)CCS(=O)(=O)c2ccccc2)c1	4	-12	2.8	4799	16	6	-3
Cc1ccc(-n2nnnc2SCC(=O)NC2CCS(=O)(=O)C2)c(C)c1 (stereo unspecified)	7	-18	2.5	?	8	2	nt
O=C1CCN(c2ncccc2[N+](=O)[O-])CC1	7	-17	1.3	4339	-4	-2	-1
COCCn1c(=S)[nH]c2sc3c(c2c1=O)CCC(C)C3 (stereo unspecified)	9	-20	16	5960	2	-2	-8
Cc1cccc(N2CCN(C(=O)CCC(=O)N3CC(C)Oc4ccc(C)cc43)CC2C)c1 (stereo unspecified)	2	-22	-11	5996	7	3	-6
CCOC(=O)c1cc(C(=O)OCC)c(=O)[nH]c1C	11	-23	7.7	2469	-4	1	9
N#Cc1ccc(Cn2ccnc2C(=O)Nc2ccccc2)cc1	-1	-19	5.0	2475	12	0	-4
COC(=O)c1c(C)n(-c2ccccc2)c2ccc(O)cc12	-21	-10	3.6	9476	6	15	-4
Cc1ccc(C(=O)Nc2ccc(C(=O)N/N=C/c3ccccn3)cc2)cc1	nt	7	nt	3718	nt	nt	2
CC(NCc1ccc(S(N)(=O)=O)cc1)C(=O)Nc1cccc(Cl)c1 (stereo unspecified)	1	-1	3.6	3449	11	4	-11
O=C(O)C1C2CCC(O2)C1C(=O)Nc1ccc(Br)cc1F (stereo unspecified)	3	-26	3.1	3230	5	1	-13
COc1ccc(CC(=O)NCC2CCCN(Cc3cc(OC)cc(OC)c3)C2)cc1 (stereo unspecified)	10	-17	-2.9	3011	4	-3	-2
S=C(NC12CC3CC(CC(C3)C1)C2)N1CCCC1	9	-15	6.2	9856	15	3	3
Cc1ccc(S(=O)(=O)N(CC(=O)NN=Cc2ccco2)Cc2ccccc2)cc1	-3	nt	4.8	nt	13	8	nt
Nc1nonc1-c1nc2ccccc2n1CC(=O)NN=Cc1ccc(-c2ccc(Cl)cc2)o1	75	nt	18	nt	11	1	nt
Cc1c(C(=O)NC(C)c2ccccn2)oc2c(Cl)cccc12 (stereo unspecified)	1	-4	2.1	4901	-1	0	nt
CC(C)OC(=O)c1cc(C(=O)c2cc(Cl)ccc2O)coc1=N	2	-25	6.7	5449	-6	2	-4
CCC(CC)C(=O)Nc1ccc(C)cc1O	-1	-44	6.6	3582	1	-2	2
CCOc1ccc(C2=CSC3=NCCN23)cc1[N+](=O)[O-]	2	-12	-2.9	3389	11	8	-1
COc1ccc(NC(=O)c2ccc3ccccc3c2)cc1NS(=O)(=O)c1ccc(F)cc1	13	-15	-3.4	2458	-5	11	4
COc1ccc(OC)c(N(CC(=O)NCCSCc2ccc(C)cc2)S(C)(=O)=O)c1	-1	0	0.3	4494	3	-3	-6
C=CCNC(=O)C(C)N1C(=O)c2ccccc2C1=O (stereo unspecified)	13	0	5.5	3342	15	5	-3
CCn1c(-c2nn(-c3ccccc3)ccc2=O)n[nH]c1=S	4	-10	5.9	2446	-6	5	5
O=S(=O)(Nc1ccc(S(=O)(=O)N2CCCC2)cc1)c1ccc(F)cc1F	6	-16	13	2958	1	2	nt
CC(=O)NCC(=O)N(C)C(C(=O)Nc1ccc(C(C)C)cc1)c1ccccc1 (stereo unspecified)	13	-5	4.8	3115	6	2	-1
Cc1ccc(NC(=O)Cn2nnc(C(=O)NCc3ccco3)c2N)c(C)c1	-1	-3	1.7	5604	-5	1	-7
O=[N+]([O-])c1cccc(N(CC(O)CN2CCCC2)S(=O)(=O)c2ccccc2)c1 (stereo unspecified)	4	-13	2.1	6317	1	-1	-2
CCOc1cc(S(=O)(=O)NCCN2CCOCC2)c(C)cc1C	10	-8	-0.5	4577	nt	nt	-6
O=C1C=C(c2ccc(-c3ccccc3)cc2)CC(c2ccc(F)cc2)C1 (stereo unspecified)	5	nt	-4.9	nt	7	7	nt
COc1cccc(N2[C@@H](CC(C)=O)c3ccccc3S2(=O)=O)c1	nt	-19	nt	3495	nt	nt	-2
COc1ccc(CNC(=O)c2cc3c(s2)CN(Cc2ccccc2)C3)cc1	3	-19	0.1	4542	-3	5	5
N#C/C(=C\c1ccc[nH]1)C(=O)NC1CC1	5	-5	2.6	8305	1	7	10
O=S(=O)(Cc1ccccc1)Oc1ccccc1	9	-18	11	4341	5	-6	2
CSCCC(NC(=O)c1ccccc1Cl)C(=O)N1CCN(c2ccccn2)CC1 (stereo unspecified)	-3	-22	1.1	6011	11	-2	-2
Cc1onc(-c2ccccc2)c1C(=O)Nc1sc2c(c1C(N)=O)CCC2	-20	-7	5.3	8435	10	11	-13
O=C(CSc1nc2ccccc2c(=O)n1Cc1ccc(C(=O)NC2CC2)cc1)NCc1ccco1	9	-28	3.4	19257*	-3	6	4
O=C(O)CSc1cc(NS(=O)(=O)c2ccc(Cl)cc2)c2ccccc2c1O	nt	-37	nt	3498	nt	nt	-12
O=C(c1cnc(Cl)c(Cl)c1)N1CCN(S(=O)(=O)c2ccc3ccccc3c2)CC1	-1	-8	1.8	5922	10	-4	nt
O=C(NCCCO)/C(=C\C=C\c1ccccc1)NC(=O)c1ccccc1Cl	2	-5	3.3	1993	11	4	9
COc1ccc(CC(=O)n2[nH]c(=O)cc(C)c2=O)cc1OC	0	-5	-2.9	nt	-4	10	0
CCc1nnc(NC(=O)C(C)N2C(=O)C3C4C=CC(C4)C3C2=O)s1 (stereo unspecified)	4	-1	4.0	4039	4	3	0
O=C(COc1ccccc1Br)NC(=O)NC1CCCC1	5	-49	5.3	5145	8	3	nt
CS(=O)(=O)N(Cc1ccc(Cl)cc1)c1ccc(C(=O)NCc2ccccn2)cc1	7	-2	2.8	4854	12	11	8
COc1ccc(CCNC(=O)C2CCCN2C(=O)Nc2cccc(C(C)=O)c2)cc1OC (stereo unspecified)	3	-6	-1.3	4979	nt	nt	-2
CC(=O)Nc1ccc(-c2csc(N/N=C(/C)c3ccccc3)n2)cc1	nt	-26	nt	4340	nt	nt	12
COc1ccc(C(C)(C)NC(=O)C2CCC(=O)N(CCCN3CCCC3=O)C2)cc1 (stereo unspecified)	3	-18	3.2	5008	9	4	8
CN(C)CCCNc1ccc(-c2cc(Nc3cccc(Cl)c3)ncn2)cn1	9	-13	-4.0	3517	15	7	39
CN(C)CCCN(C(=O)COc1ccc(Cl)cc1)c1nc2ccc(F)cc2s1	6	4	-1.4	3467	7	6	15
S=C1NCC(Cc2ccccc2)N1CCc1cccc2ccccc12 (stereo unspecified)	11	nt	-1.5	nt	5	5	nt
COC(C[C@H](O)CC(=O)[C@@H](C)OCc1ccccc1)OC	nt	-19	nt	3156	nt	nt	-2
Next entries.
SMILES	ugtP null kill	PrP UTR inh	RN4220 kill	Autofluor counter	Mtb hypoxia inh	Mtb hypoxia inh growth	BJeLR viability
CCOC(=O)CSc1n[nH]c(NC(=O)CC)n1	-2	-23	3.0	3405	0	3	-2
CCCc1[nH][nH]c(=O)c1C(c1ccccc1)C(C#N)C#N (stereo unspecified)	3	-21	6.0	8288	6	4	-20
CCCCCn1c(CN2CCN(CCO)CC2)nc2c1c(=O)n(C)c(=O)n2C	2	-5	5.0	6034	0	2	0
O=C(NC1CC1)C1=C[C@@H](c2c[nH]c3ccccc23)C[C@@H](OCc2ccc(CO)cc2)O1	nt	-32	nt	2968	nt	nt	2
O=C(NC1CC(=O)N(c2ccc3c(c2)OCCO3)C1)N1CCC(O)CC1 (stereo unspecified)	3	-15	1.0	5106	14	9	-5
COc1ccc(C(=O)C2(C)N(O)C(C)C(c3cccs3)=[N+]2[O-])cc1 (stereo unspecified)	5	-10	1.6	5924	22	6	-13
CCN(CC)S(=O)(=O)c1ccc(N2CCOCC2)c(NC(=O)c2ccco2)c1	3	-1	8.0	3037	13	9	nt
CCSc1nnc(NC(=O)c2cccs2)s1	-13	-10	6.6	22159*	4	11	0
O=C(c1coc2ccc(O)c(CN3CCOCC3)c12)C1CC1	4	-2	0.0	4499	2	0	4
CCNc1nc(NC(C)C)nc(NS(=O)(=O)c2ccc(N)cc2)n1	12	-29	3.4	17274*	1	2	-1
O=C(COC(=O)C1CC(=O)N(C2CCCCC2)C1)c1ccc(F)cc1 (stereo unspecified)	5	5	-2.2	4115	nt	nt	-9
CC(C)[C@H](NC(=O)NCCC1=CCCCC1)C(=O)O	-4	2	-2.2	5209	-5	4	-2

Overlap with the part before: 2 compounds, followed by the next part.
SMILES	ugtP null kill	PrP UTR inh	RN4220 kill	Autofluor counter	Mtb hypoxia inh	Mtb hypoxia inh growth	BJeLR viability
O=C(COC(=O)C1CC(=O)N(C2CCCCC2)C1)c1ccc(F)cc1 (stereo unspecified)	5	5	-2.2	4115	nt	nt	-9
CC(C)[C@H](NC(=O)NCCC1=CCCCC1)C(=O)O	-4	2	-2.2	5209	-5	4	-2
Cc1cc(OCC(O)CN2CCCC2)cc(C)c1Cl (stereo unspecified)	4	-11	-2.5	?	4	-5	1
N#Cc1c2c(c(=S)n(-c3ccccc3)c1N)CCCC2	-8	7	1.6	3586	4	6	10
O=c1c(/C=N/O)c(Nc2ccccc2)nc2ccccn12	nt	-3	nt	6267	nt	nt	7
Cc1ccc(S(=O)(=O)N(CC(=O)NCCC2=CCCCC2)Cc2ccccc2F)cc1	-5	-19	6.0	4675	nt	nt	-5
O=C(NNC(=O)OCc1ccccc1)OCc1ccccc1	1	-24	4.2	4977	15	15	nt
COC(CNC(=O)c1cccnc1)OC	9	-25	7.7	4239	-6	-7	-7
CNC(=O)c1cc2cc(Cl)cc(OC)c2oc1=O	-4	-7	4.5	2328	nt	nt	-4
CCOC(=O)Cc1csc(NC(=O)c2ccc(OC)c(OC)c2)n1	1	nt	3.1	9794	6	7	-1
Cc1ccc2nc(SC(C)C(=O)N3CCOCC3)[nH]c2c1 (stereo unspecified)	5	-52	8.0	3922	4	4	11
O=S(=O)(Nc1cccc(Cl)c1)c1ccc2oc(=S)[nH]c2c1	-1	-12	-4.5	3472	3	4	6
O=C(NCc1ccc(F)cc1)c1cnc2n(c1=O)CCS2	-10	-25	7.6	6068	2	4	0
COc1cc2[nH]c(=S)n(CCN3CCCCC3C)c(=O)c2cc1OC (stereo unspecified)	-1	5	1.3	10760	1	2	3
O=C(NN=Cc1cccc([N+](=O)[O-])c1)c1cnccn1	0	nt	2.3	nt	-3	3	nt
O=C(NCc1ccccc1)C12CC3CC(CC(Br)(C3)C1)C2	5	-12	1.5	3690	4	10	7
O=C(CCN(CCO)Cc1ccccc1)Nc1ccc(Br)cc1	-1	-9	2.6	6201	7	12	-5

Compounds were not picked by outcome. About 4.1% of those tested had a hit in this group.
